Compound activity: PubChem, several laboratories
RGS16-Gao HTS – regulators of human RGS16-Galphao interaction; O15492+P09471; bead-based flow cytometry RGS16-Galphao binding, fluorescence; actives lie on both sides; binding response (% of control), % at 10 µM; 220,000 tested, 0.38% active; AID 1441;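 active = below 25% or above 175%, edge rows of some plates excepted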;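 also: Galphao activated by GDP with aluminum fluoride before binding; 100% = wells without compound and 0% = beads without RGS; some results beyond the cut were filed as inactive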
PKD1 inh – PKD1 (human) kinase inhibition; 200,000 tested, 0.056% active; inhibition, %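 (about 10 µM by stock and volumes)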; Q15139; AID 797; PKD1 kinase fluorescence polarization assay;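 active = inhibition of 50% or more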;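 also: controls were vehicle for no effect and a reference inhibitor for full effect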
Target sequence (Q15139 whole entry, looked up): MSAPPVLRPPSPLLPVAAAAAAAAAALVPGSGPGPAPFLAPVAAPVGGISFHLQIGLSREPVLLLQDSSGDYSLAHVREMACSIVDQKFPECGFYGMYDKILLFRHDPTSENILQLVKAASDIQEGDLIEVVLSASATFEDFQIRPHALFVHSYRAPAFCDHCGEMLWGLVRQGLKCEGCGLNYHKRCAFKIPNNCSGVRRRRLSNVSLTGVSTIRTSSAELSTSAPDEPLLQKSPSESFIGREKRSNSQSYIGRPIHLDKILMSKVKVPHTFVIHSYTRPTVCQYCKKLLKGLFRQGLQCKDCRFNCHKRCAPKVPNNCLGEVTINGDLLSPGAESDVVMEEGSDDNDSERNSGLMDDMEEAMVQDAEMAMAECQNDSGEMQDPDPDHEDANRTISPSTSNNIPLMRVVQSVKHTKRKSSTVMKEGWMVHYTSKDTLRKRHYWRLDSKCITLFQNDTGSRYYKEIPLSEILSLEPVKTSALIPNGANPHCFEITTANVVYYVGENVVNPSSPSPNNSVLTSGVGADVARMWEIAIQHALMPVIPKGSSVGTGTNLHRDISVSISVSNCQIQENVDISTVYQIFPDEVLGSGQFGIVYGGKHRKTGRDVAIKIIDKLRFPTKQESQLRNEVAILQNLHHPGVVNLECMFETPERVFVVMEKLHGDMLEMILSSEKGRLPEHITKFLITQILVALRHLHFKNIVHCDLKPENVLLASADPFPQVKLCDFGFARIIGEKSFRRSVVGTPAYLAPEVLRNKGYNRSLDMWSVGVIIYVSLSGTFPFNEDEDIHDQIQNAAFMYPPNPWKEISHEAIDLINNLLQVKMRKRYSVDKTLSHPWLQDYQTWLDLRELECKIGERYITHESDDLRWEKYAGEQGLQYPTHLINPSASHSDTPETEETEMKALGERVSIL
INS promoter inh – TRM-6 insulin promoter activity inhibition; 130,000 tested, 0.9% active; TRM-6 cells (human fetal islet line), insulin promoter-eGFP reporter, imaging; reporter expression induced with tamoxifen; inhibition, % at 2 µM; AID 1273;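 active = inhibition above the mean plus 3 SD, with well images judged a real hit on visual review, cut at about 60% in these data, passing the limit was not always enough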
HSV replic up – HSV replication enhancement. HSV replication augmentation in cells, fold increase. maximum fold increase. 220,000 tested, 0.005% active. AID 1956;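 active = peak rise of 1.5-fold or more in the series; tested in PC3 cells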;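 also: first round at 10 µM; read as green reporter fluorescence; hits show the peak of a series up to 25 µM; 1 = signal of infected wells without compound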
GALR2 agonist – activates the human galanin receptor 2; O43603; GALR2-expressing cells, agonist activation read-out; activation, %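 (tested at 5 µM)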; 140,000 tested, 0.48% active;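 active = above mean plus 3 SD of all compounds, about 5% in these data, not always enough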;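 also: 0% = vehicle buffer wells and 100% = reference agonist at full effect; tested in CHO reporter cells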
INS promoter inh cell count – recorded beside INS promoter inh, whose call it bears; normalized cell count, %; measured here: cell count, toxicity; reference of the scale not given here;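 cells exposed to compound for 48 h; stained nuclei by imaging scaled within each plate; lower means fewer cells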
HSV replic up primary fold – also measured in HSV replic up; calls as there; fold increase; compound at 10 µM; measured here: primary screen fold increase 10 uM; tested in PC3 cells;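 GFP signal in the first replicate; 1 = infected wells without compound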
The depositor's hits bear a star; i = inactive; / = not tested or not shown; & = joins results of further samples.

Sequence of screens: RGS16-Gao HTS | PKD1 inh | INS promoter inh | INS promoter inh cell count | HSV replic up | HSV replic up primary fold | GALR2 agonist
- CCOC(=O)NN1C(=O)c2ccccc2NC1C (stereo not given)
→ 101.1 | 0.8 | -25.0 | 141.8 | i | 0.91 | /
- Cc1cc2cc3c(cc2nc1SCC(=O)OC(C)C)OCCO3
→ 85.2 | -6.7 | 13.0 | 92.9 | i | 0.85 | -1.7
- COc1ccc2c(C)cc3n[nH]c(=S)n3c2c1
→ 102.5 | / | / | / | i | 0.94 | /
- COc1cc(CN2CCN(c3cc(C)ccc3C)CC2)cc([N+](=O)[O-])c1O
→ / | -8.3 | -11.6 | 138.5 | i | 0.72 | 0.6
- O=C(NCCN1C(=O)S/C(=C/c2cccnc2)C1=O)C1CC(=O)N(Cc2ccccc2)C1 (stereo not given)
→ 106.6 | -2.4 | 25.0 | 113.2 | i | 1.07 | /
- C=CCn1nc(-c2ccccc2)c(N2CCCCC2)cc1=O
→ 106.0 | -0.5 | 22.2 | 74.8 | i | 0.9 | /
- Cn1c(-c2cc(Cl)ccc2O)nc2c1c(=O)[nH]c(=O)n2Cc1ccccc1
→ 104.2 | 5.3 | / | / | i | 0.86 | /
- O=C(Nc1ccccc1C(=O)Nc1ccc2c(c1)OCO2)c1cccs1
→ 106.2 | -6.3 | -3.3 | 109.5 | i | 0.99 | -3.1
- CCCc1nn2c(N)c(/C=C3\C=Nc4ccccc43)c(=O)nc2s1
→ 115.3&108.3 | -18.5 | 21.4 | 116.2 | i | 0.92&1 | -0.9
- O=C(C1CCN(S(=O)(=O)N2CCC3(CC2)OCCO3)CC1)N1CCN(Cc2ccccc2)CC1
→ 123.5 | -6.4 | -34.4 | 85.2 | i | 0.98 | -2.0
- CCCCOC(=O)c1cc(C)nc2ccc(Br)cc12
→ 91.3 | -3.2 | 39.7 | 77.2 | i | 0.86 | -2.5
- Cc1cc(C)cc(NC(=O)OCCN2CCN(Cc3ccccc3)CCC2=O)c1
→ 113.7 | -9.1 | -4.8 | 53.7 | i | 0.92 | -1.8
- Cc1ccc(CSCC(=O)NCCc2ccccc2)cc1
→ 102.3 | 0.9 | -16.7 | 119.8 | i | 0.95 | /
- Nc1cccc(Nc2nc(OC(C(F)(F)F)C(F)(F)F)nc(OC(C(F)(F)F)C(F)(F)F)n2)c1
→ 99.0 | -5.9 | 13.5 | 107.5 | i | 0.73 | -0.6
- CC1=C(C(=O)N2CCCCC2)C(c2cccs2)C2=C(CCCC2=O)N1 (stereo not given)
→ 99.4 | -1.7 | -13.5 | 157.9 | i | 0.87 | -1.3
- CCOc1ccc2nc(N(CCN(CC)CC)C(=O)c3cccc([N+](=O)[O-])c3)sc2c1
→ 99.8 | 4.4 | / | / | i | 0.97 | /
- O=C(O)CCN=C1CCCc2ccccc2N1
→ 101.1 | -5.6 | 21.4 | 110.8 | i | 0.95 | -2.7
- CCC(Br)C(=O)Nc1ccc(OC)cc1 (stereo not given)
→ 92.7 | -3.6 | / | / | i | 1.06 | /
- C#CCOCCOCCOCCNc1nc(N2CCOCC2)nc(N2CCN(C(=O)[C@H](CCCCN)n3cc([C@@H](N)CC(C)C)nn3)CC2)n1
→ 97.0 | 5.4 | / | / | i | 1.09 | /
- CC12CCC(C(=O)NCc3ccccc3)(OC1=O)C2(C)C (stereo not given)
→ 99.8 | -5.6 | -62.5 | 82.5 | i | 1 | -0.5

Compound profiles, as listed above. Screens in order: RGS16-Gao HTS | PKD1 inh | INS promoter inh | INS promoter inh cell count | HSV replic up | HSV replic up primary fold | GALR2 agonist
`CC1=C(C(=O)N2CCCCC2)C(c2cccs2)C2=C(CCCC2=O)N1` (stereo not given) across the screens: 99.4 | -1.7 | -13.5 | 157.9 | i | 0.87 | -1.3
`O=C(O)CCN=C1CCCc2ccccc2N1` across the screens: 101.1 | -5.6 | 21.4 | 110.8 | i | 0.95 | -2.7
`Cc1ccc(CSCC(=O)NCCc2ccccc2)cc1` across the screens: 102.3 | 0.9 | -16.7 | 119.8 | i | 0.95 | /
`CCCCOC(=O)c1cc(C)nc2ccc(Br)cc12` across the screens: 91.3 | -3.2 | 39.7 | 77.2 | i | 0.86 | -2.5

Other records follow:
Sequence of screens: RGS16-Gao HTS | PKD1 inh | INS promoter inh | INS promoter inh cell count | HSV replic up | HSV replic up primary fold | GALR2 agonist
- Cc1ccc(-c2nnc(N3CCC(C)CC3)c3ccccc23)cc1
→ 102.7 | -5.3 | 61.1 | 95.8 | i | 0.85 | /
- COc1ccc(C(=O)COC(=O)c2ccc(OC)c(OC)c2)cc1OC
→ 96.9 | -7.4 | / | / | i | 0.997 | -1.1
- O=C(c1cccc(F)c1)N1CCN(Cc2c[nH]c3ccccc23)CC1
→ 103.6 | -1.8 | 31.2 | 72.2 | i | 0.91 | -3.2
- Cc1nnc(SCc2ccccc2Cl)n1CC1CCCO1 (stereo not given)
→ 96.7 | -3.1 | 30.3 | 108.5 | i | 0.97 | -0.8
- O=C(/C=C/Nc1ccc(F)cc1)c1cccs1
→ / | -5.3 | 53.3 | 96.7 | i | 1.2 | -1.8
- Cc1ccc2c(c1C)NC(=O)C2(O)CC(=O)c1ccc2c(c1)OCO2 (stereo not given)
→ 68.9 | -5.3 | -15.1 | 196.6 | i | 0.93 | -2.9
- CC(C)(Oc1ccc(CCNC(=O)c2ccc(-c3ccccc3)o2)cc1)C(=O)O
→ 101.8 | -0.1 | / | / | i | 1 | 0.5
- Nc1nc(-c2ccccc2)nc2sc3c(c12)CCCC3
→ 108.7 | -1.9 | 19.2 | 103.5 | i | 0.77 | -1.2
- Cc1nn(Cc2ccc(C(=O)Nc3ccccc3F)cc2)c(C)c1Cl
→ 108.0 | -1.2 | / | / | i | 0.94 | /
- CCC(c1nnc(SCC(=O)Nc2cccc(S(N)(=O)=O)c2)n1Cc1ccccc1)N(C)C (stereo not given)
→ 101.9 | / | / | / | i | 1.02 | /
- Cc1oc(-c2cc(F)ccc2F)nc1CN(C)Cc1ccc2nccnc2c1
→ 96.7 | -0.6 | -123.1 | 109.5 | i | 1 | /
- O=C(NC(=S)NCCC1=CCCCC1)c1ccccc1Br
→ 89.8 | 3.0 | / | / | i | 0.93 | /
- COC(=O)c1cn(-c2cccc(C)n2)cn1
→ 101.4 | 1.7 | 2.3 | 113.9 | i | 1.12 | /
- Cc1csc(Sc2ccc([N+](=O)[O-])cc2C(=O)OCC(=O)NC(=O)NC(C)(C)C)n1
→ 97.8 | -4.4 | / | / | i | 0.85 | -1.6
- COC(=O)C1CSC(C(=O)OC)N1C(=O)CN1CC(C)OC(C)C1 (stereo not given)
→ 98.7 | -11.3 | -10.7 | 85.6 | i | 0.9 | -0.2
- Cc1c(/C(O)=C2/C(=O)C(=O)N(CCN3CCOCC3)C2c2cccnc2)cnn1-c1ccccc1 (stereo not given)
→ 102.2 | -0.2 | -8.3 | 103.6 | i | 0.87 | -4.0
- Cn1c(N)c(C(=O)c2cc(-c3ccncc3)nc3ccccc23)c(=O)n(C)c1=O
→ 103.3 | -4.3 | -47.6 | 88.5 | i | 1.1 | /
- CCOC(=O)C1=C2NC(=O)c3ccccc3N2C(=O)C1
→ 107.5 | -7.3 | 63.6 | 71.4 | i | 1.29 | /
- O=C(O)Cc1ccc(C(=O)c2ccc(Cl)cc2Cl)s1
→ 102.8 | -4.9 | / | / | i | 0.99 | /
- Cc1nc(-c2ccc(Cl)cc2)sc1C1(C)CC(c2cccc(F)c2)=NO1 (stereo not given)
→ 100.3 | / | / | / | i | 0.83 | /
- Cc1ccccc1OCC(=O)Nc1cccc2nsnc12
→ 95.9 | -4.6 | 62.8 | 86.4 | i | 1.01 | -1.5
- Cc1ccc(C)c(NS(=O)(=O)c2ccc3[nH]c(=O)oc3c2)c1
→ 99.4 | 4.9 | 11.8 | 125.5 | i | 0.98 | /
- CC(=O)c1cc(-c2ccccc2)n(CC(=O)Nc2cc(C)cc(C)c2)c1C
→ 109.7 | -0.2 | -3.3 | 95.8 | i | 1.06 | 2.1
- COC(=O)CSc1nnc(CNC(=O)c2cccs2)n1-c1cc(OC)ccc1OC
→ 98.8 | -2.3 | / | / | i | 0.88 | -2.1
- O=C(O)CCc1nnc(SCC(=O)Nc2ccc(Br)cc2)[nH]c1=O
→ 115.5 | 1.3 | 54.5 | 74.7 | i | 1.01 | /
- CCOC(=O)c1c(C)n(C)c2ccc(OC)c(NC(=O)CN3CCN(Cc4ccccc4)CC3)c12
→ 101.1 | 4.9 | / | / | / | / | 0.4
- COc1ccc(C2=Nn3c(nnc3-c3ccncc3)SC2)cc1
→ 41.0 | -0.5 | 40.6 | 172.6 | i | 0.69 | -0.5
- COC(=O)C(=O)/C=C(\O)c1c(C)cc(C)cc1C
→ 103.2 | / | / | / | i | 0.98 | /
- Cc1ccc(-c2nnc(Nc3ccc4c(c3)nc(C)n4C)c3ccccc23)cc1
→ 99.8 | -1.1 | -64.5 | 151.2 | i | 0.74 | -0.7
- COCCCNS(=O)(=O)c1ccc2c(c1)CCN2C(C)=O
→ 112.4 | -12.4 | -10.3 | 92.9 | i | 1.01 | -1.5

In a second layout: entries from further up.
molecule	RGS16-Gao HTS	PKD1 inh	INS promoter inh	INS promoter inh cell count	HSV replic up	HSV replic up primary fold	GALR2 agonist
Cc1ccccc1OCC(=O)Nc1cccc2nsnc12	95.9	-4.6	62.8	86.4	i	1.01	-1.5
Cc1ccc(C)c(NS(=O)(=O)c2ccc3[nH]c(=O)oc3c2)c1	99.4	4.9	11.8	125.5	i	0.98	/
CC(=O)c1cc(-c2ccccc2)n(CC(=O)Nc2cc(C)cc(C)c2)c1C	109.7	-0.2	-3.3	95.8	i	1.06	2.1
COC(=O)CSc1nnc(CNC(=O)c2cccs2)n1-c1cc(OC)ccc1OC	98.8	-2.3	/	/	i	0.88	-2.1

Next entries.
Sequence of screens: RGS16-Gao HTS | PKD1 inh | INS promoter inh | INS promoter inh cell count | HSV replic up | HSV replic up primary fold | GALR2 agonist
- O=C(CSc1nc2c(c(=O)[nH]1)CCCC2)Nc1ccc(Cl)cc1F
→ 103.7 | -14.7 | / | / | i | 0.78 | -1.1
- O=C(Nc1ccccc1)N1CCC(=S)Nc2ccccc21
→ 90.5 | -6.3 | 23.1 | 99.8 | i | 0.98 | -0.9
- O=C(NNC(=S)Nc1ccccc1)c1ccccc1[N+](=O)[O-]
→ 102.5 | 1.0 | 7.1 | 104.4 | i | 0.93 | /
- COc1ccc(CCNC(=O)C2CCCN2C(=O)NC2CCCCC2)cc1OC (stereo not given)
→ 97.3 | -2.5 | -21.4 | 94.3 | i | 0.94 | -0.6
- C=CCNC(=O)C1CCN(S(=O)(=O)c2ccccc2)CC1
→ 95.2 | -2.9 | 15.4 | 182.8 | i | 0.88 | -0.5
- Nc1ccc2c(C(F)(F)F)cc(=O)oc2c1
→ 102.2 | 1.1 | / | / | i | 0.963 | 1.6
- Cc1nn(-c2ccccc2)c(C)c1/C=N/n1c(-c2ccccc2Br)n[nH]c1=S
→ 106.5 | / | / | / | i | 0.97 | /
- CC1CCCCC1NC(=O)C1CCN(S(=O)(=O)N2CCOCC2)CC1 (stereo not given)
→ 102.3 | -9.7 | / | / | i | 1.18 | 0.8
- CN(CC(=O)NCc1ccncc1)S(=O)(=O)c1ccc2ccccc2c1
→ 101.0 | -6.9 | -27.8 | 161.5 | i | 1 | /
- O=C(c1ccco1)N1CCN(Cc2cccc([N+](=O)[O-])c2)CC1
→ 102.7 | -5.5 | -30.8 | 79.6 | i | 0.98 | /
- FC(F)(F)c1cccc(Cc2noc(CN3C[C@@H]4CCC[C@H]3C4)n2)c1
→ 102.4 | 0.2 | / | / | i | 1.09 | /
- Cc1cc(C)cc(NC(=O)C(NCC2CCCO2)c2ccccc2)c1 (stereo not given)
→ 107.9 | -7.3 | -87.1 | 147.6 | i | 0.97 | -0.9
- CCCC(C)C1C(C#N)=C(N)Oc2cc(C)oc(=O)c21 (stereo not given)
→ / | -2.4 | -26.3 | 76.7 | / | / | -0.2
